Assay outcomes as filed in PubChem BioAssay.
Mtb hypoxia inh: PubChem AID 1159583; M. tuberculosis hypoxia-regulated fluorescent reporter, fluorescence; fluorescence inhibition, % (concentration not given with the values); 0.1% of 300,000 active;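 active = 35 to 45% if threefold the growth effect, above 45% if 1.5-fold the growth effect; inactive = the rest, general growth blockers included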;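 note: wells of about 50 µL received 100 nL stock; 0% = vehicle wells and 100% = reference inhibitor wells; whole bacteria with a GFP reporter of the hypoxia response; strong numbers were not always called active; many hits fall short of the cut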
RN4220 kill: growth inhibition of S. aureus RN4220, primary screen, OD600; 16 h; inhibition, % (test concentration not listed); 0.33% of 330,000 active; AID 1259311, 2017;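 active = z-score of -3 or lower and OD600 up to 0.18 on both plates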;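 note: plate controls were untreated cells for no effect and reference antibiotic for full effect; stock transfer was 100 nL into about 80 µL; one replicate is shown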
Bead autofluor: compound fluorescence in toxin protease inhibitor counterscreen. compound autofluorescence counterscreen, microsphere flow cytometry; active compounds read high. fluorescence intensity (no concentration beside the values). 3.1% of 360,000 active. AID 624483;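 active = at least 3 SD above the mean of all compounds, about 16000 in these data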;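 note: 100 nL of 1 mM stock went into each well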
BJeLR lethal: MLPCN primary cell-based screen for lethality selective to Ras in HRASV12 cells. inhibition, % (test concentration not listed). BJeLR (HRASV12) viability, CellTiter-Glo ATP luminescence, 48 h; reference of the scale not given here. AID 1554, 2009. 0.17% of 300,000 active;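 active = replicate mean above 50%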;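 note: 50 nL library stock added to about 25 µL; numbers are from one replicate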
PrP UTR inh: inhibition of PrP 5' UTR reporter expression | cell-based PrP 5' UTR mRNA reporter, plate reader | inhibition, % (test concentration not listed) | 0.35% of 340,000 active | AID 488862, 2010;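 active = every replicate at 50% or more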;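 note: 0 = median of the neutral control wells; tested in H4 reporter cells; numbers are from one replicate; inactives centre near -14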
Sa ugtP lethal: growth inhibition of ugtP-null S. aureus, primary screen, RN4220 ugtP deletion, OD600; 0.54% of 330,000 active; 16 h; some inactives read as strong as hits; growth inhibition, % (concentration not given with the values); AID 1259309, 2017;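 active = z-score under -3 and OD600 up to 0.15 on both plates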;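 note: plate controls were untreated wells for no effect and antibiotic for full effect; wells of about 80 µL received 100 nL stock; the first replicate is given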
Mtb hypoxia inh growth: also measured in Mtb hypoxia inh; calls as there; growth inhibition, %; measured here: M. tuberculosis growth (absorbance);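 0% = vehicle and 100% = reference antibiotic; read after six days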
The depositor's hits bear a star.

COc1cccc(-c2ncc3ccccc3c2COC(=O)c2ccco2)c1 was read as Mtb hypoxia inh 4.9, RN4220 kill 7.9, Bead autofluor 3756, PrP UTR inh -14.1, Sa ugtP lethal 5.4 and Mtb hypoxia inh growth 13.0.
Screening Cc1cc(Br)ccc1NC(=O)CN(C)C(=O)CN1C(=O)NC(C)(C2CC2)C1=O (configuration not stated) returned Mtb hypoxia inh 1.5, RN4220 kill 2.4, Bead autofluor 9080, PrP UTR inh -15.7, Sa ugtP lethal -0.6 and Mtb hypoxia inh growth 7.2.
Screening CN(C)c1ccc(S(=O)(=O)NCC(=O)N2CCN(c3ccccc3)CC2)cc1[N+](=O)[O-] returned Mtb hypoxia inh -0.4, RN4220 kill 4.0, Bead autofluor 3773, BJeLR lethal 5.8, PrP UTR inh -21.4, Sa ugtP lethal 6.4 and Mtb hypoxia inh growth -5.4.
Cc1c(C(=O)NN=Cc2ccncc2)nnn1-c1nonc1N was read as Mtb hypoxia inh 5.7, RN4220 kill 2.4, Sa ugtP lethal 5.5 and Mtb hypoxia inh growth -3.0.
For CCOC(=O)c1c(C)[nH]c(C)c1S(=O)(=O)NCCN1CCN(c2cc(Cl)ccc2C)CC1 the results were Mtb hypoxia inh -9.6, RN4220 kill -6.4, Bead autofluor 6577, BJeLR lethal 3.5, PrP UTR inh 18.5, Sa ugtP lethal -7.0 and Mtb hypoxia inh growth -2.7.
For COc1ccc2cc(-c3cc(C(=O)OCC(=O)Nc4c(C)n(C)n(-c5ccccc5)c4=O)c4ccccc4n3)ccc2c1 the results were Mtb hypoxia inh -3.2, RN4220 kill 2.0, Bead autofluor 2043, BJeLR lethal 0.6, PrP UTR inh 34.6, Sa ugtP lethal -0.7 and Mtb hypoxia inh growth -1.6.
Screening OC(COc1ccc2c(c1)CCC2)CN1CCN(c2ccccc2F)CC1 (configuration not stated) returned Mtb hypoxia inh 5.7, RN4220 kill 3.6, Bead autofluor 10345, BJeLR lethal -4.6, PrP UTR inh -23.6, Sa ugtP lethal 11.6 and Mtb hypoxia inh growth 2.2.
COCC(=O)N1CCC(Oc2ccc(C(=O)N3C[C@@H]4CCC[C@H]3C4)cc2)CC1 was read as Mtb hypoxia inh 4.7, RN4220 kill 2.9, Bead autofluor 4474, BJeLR lethal -6.4, PrP UTR inh -16.5, Sa ugtP lethal 2.5 and Mtb hypoxia inh growth -2.8.
For COc1cc(CNCc2ccc(OC)c3ccccc23)cc(OC)c1OC the results were Mtb hypoxia inh -13.8, RN4220 kill 1.0, Bead autofluor 3854, BJeLR lethal 12.3, PrP UTR inh 1.3, Sa ugtP lethal -1.2 and Mtb hypoxia inh growth -2.5.
`C[C@@H]1CCC[C@H](C)N1Cc1nc(Cc2ccccc2Cl)no1` gave Bead autofluor 5791, BJeLR lethal -3.9 and PrP UTR inh -24.1.
For O=C(O)c1nc(Cl)c(Cl)c(N/N=C/c2ccccc2C(F)(F)F)c1Cl the results were Bead autofluor 5384, BJeLR lethal 0.9 and PrP UTR inh 4.1.
`COc1ccc(Nc2nc(OC)nc(N3CCN(c4ccc(OC)cc4)CC3)n2)cc1` gave Mtb hypoxia inh 15.1, RN4220 kill 8.6, Bead autofluor 12487, BJeLR lethal -1.2, PrP UTR inh -26.1, Sa ugtP lethal -2.1 and Mtb hypoxia inh growth 5.9.
CC1(C)Oc2ccc3ccc(=O)oc3c2/C(=C/NCCO)C1=O was read as RN4220 kill 4.6, Bead autofluor 2162, BJeLR lethal -4.4, PrP UTR inh -8.1 and Sa ugtP lethal 10.7.
Screening CCN(C(=O)COC(=O)CCC1CCCC1)c1c(N)n(Cc2ccccc2)c(=O)[nH]c1=O returned Mtb hypoxia inh 0.6, RN4220 kill 3.1, Bead autofluor 5635, PrP UTR inh -6.4, Sa ugtP lethal 1.6 and Mtb hypoxia inh growth 0.0.
O=S(=O)(N[C@@H]1C[C@H]2CC[C@@H]1C2)c1cccs1 was read as RN4220 kill -0.4, Bead autofluor 4549, BJeLR lethal -6.9, PrP UTR inh -9.9 and Sa ugtP lethal 1.6.
C/C(=N\N=c1/scc(C)n1Cc1ccco1)c1cccc([N+](=O)[O-])c1 was read as Bead autofluor 2442, BJeLR lethal -11.6 and PrP UTR inh -11.9.
Screening Cc1[nH]c(=O)[nH]c(=O)c1S(=O)(=O)N1CCCCC1 returned Mtb hypoxia inh 7.6, RN4220 kill 0.8, Bead autofluor 3699, BJeLR lethal -0.3, PrP UTR inh -21.3, Sa ugtP lethal 19.3 and Mtb hypoxia inh growth 9.1.
Screening O=C(COC(=O)c1cc(-c2cccs2)nn1-c1ccccc1)Nc1cccc([N+](=O)[O-])c1 returned Mtb hypoxia inh -3.2, RN4220 kill 0.6, Bead autofluor 2428, BJeLR lethal -6.4, PrP UTR inh -15.7, Sa ugtP lethal -4.5 and Mtb hypoxia inh growth -2.8.
Screening O=C(N[C@@H](Cc1ccccc1)C(=O)O)c1cccnc1 returned RN4220 kill 0.2, Bead autofluor 6396, BJeLR lethal 2.1, PrP UTR inh -18.7 and Sa ugtP lethal 3.7.
`Cc1nn(-c2ccccc2)c(C)c1C(=O)OC(C)C(=O)Nc1ccc(C(N)=O)cc1` (configuration not stated) gave Mtb hypoxia inh -2.2, RN4220 kill 2.7, Bead autofluor 4105, PrP UTR inh -3.0, Sa ugtP lethal 0.8 and Mtb hypoxia inh growth 4.3.
`O=C(Nc1ccccc1)Nc1ccc2ccccc2c1` gave Mtb hypoxia inh 3.8, RN4220 kill -2.5, Bead autofluor 5361, BJeLR lethal -1.7, PrP UTR inh -71.4, Sa ugtP lethal 4.8 and Mtb hypoxia inh growth 15.0.
Screening Cc1ccc(-c2nc3ncccc3o2)cc1NC(=O)C(C)(C)C returned Mtb hypoxia inh 14.9, RN4220 kill 1.8, Bead autofluor 3908, BJeLR lethal 6.8, PrP UTR inh -15.7, Sa ugtP lethal 0.3 and Mtb hypoxia inh growth 3.5.
Cc1ccc(N2C(=O)/C(=C\c3ccc(C(C)C)cc3)N=C2SC2CCOC2=O)cc1 (configuration not stated) was read as Mtb hypoxia inh -1.4, RN4220 kill -0.3, Bead autofluor 9133, BJeLR lethal -1.1, PrP UTR inh -9.9, Sa ugtP lethal 3.7 and Mtb hypoxia inh growth -1.2.
`O=C(O)CC(NC(=O)C12CC3CC(CC(C3)C1)C2)c1cc([N+](=O)[O-])ccc1Cl` (configuration not stated) gave Mtb hypoxia inh 7.7, RN4220 kill 8.6, Bead autofluor 4643, BJeLR lethal -2.0, PrP UTR inh -5.3, Sa ugtP lethal 7.2 and Mtb hypoxia inh growth 9.4.
Screening Cc1ccc(OCC(=O)NN=Cc2ccc(-c3cccc(C(=O)O)c3)o2)c(C)c1 returned Mtb hypoxia inh 8.3, RN4220 kill -0.2, Sa ugtP lethal -1.5 and Mtb hypoxia inh growth 6.6.
COCc1c(C(=O)N/N=C/c2cccc3ccccc23)nnn1-c1nonc1N was read as Bead autofluor 4335, BJeLR lethal -5.7 and PrP UTR inh -7.2.
CSc1ccc(NC(=O)N2CC=C(n3c(=O)[nH]c4ccccc43)CC2)cc1 was read as Mtb hypoxia inh 5.7, RN4220 kill 0.9, Bead autofluor 9728, BJeLR lethal 2.2, PrP UTR inh -34.5, Sa ugtP lethal -6.8 and Mtb hypoxia inh growth 0.3.
Cc1cc([N+](=O)[O-])nn1CC(=O)N1c2ccccc2CC1C (configuration not stated) was read as Mtb hypoxia inh 4.7, RN4220 kill -3.6, Bead autofluor 2203, BJeLR lethal -13.0, PrP UTR inh -18.7, Sa ugtP lethal 0.2 and Mtb hypoxia inh growth 2.0.
Screening COc1c(C(=O)Nc2ccc(Cc3ccncc3)cc2)ccc2ccccc12 returned Mtb hypoxia inh -4.2, RN4220 kill 10.4, Bead autofluor 2081, BJeLR lethal 0.2, PrP UTR inh -6.5, Sa ugtP lethal 6.2 and Mtb hypoxia inh growth -10.8.
For O=C(CCn1nnnc1CN1CCOCC1)N1CCC(c2ccccc2F)C1 (configuration not stated) the results were Mtb hypoxia inh 4.0, RN4220 kill 0.6, Bead autofluor 5516, BJeLR lethal 1.3, PrP UTR inh -12.0, Sa ugtP lethal -0.6 and Mtb hypoxia inh growth 6.2.
`CCOC(=O)c1c(CSc2ccccc2)n(C)c2cc(Br)c(OC)c(O)c12` gave Mtb hypoxia inh -9.1, RN4220 kill 7.7, Bead autofluor 3888, BJeLR lethal -12.5, PrP UTR inh -14.4, Sa ugtP lethal 1.7 and Mtb hypoxia inh growth -3.5.
Screening O=c1c2ccccc2nc(/C=C/c2ccccc2)n1CCc1ccccc1 returned Mtb hypoxia inh 8.7, RN4220 kill 4.6, Bead autofluor 2391, BJeLR lethal 15.3, PrP UTR inh -7.7, Sa ugtP lethal 6.2 and Mtb hypoxia inh growth 5.2.
For CCOc1ccc(CN(C)C(=O)c2cc3ccccc3o2)cc1OC the results were Mtb hypoxia inh 3.8, RN4220 kill 2.2, Bead autofluor 3700, BJeLR lethal -3.6, PrP UTR inh -14.2, Sa ugtP lethal 8.3 and Mtb hypoxia inh growth -9.3.
Screening COc1cccc(/C=N/NC(=O)CN2CC(c3ccccc3)CC2=O)c1OC (configuration not stated) returned Bead autofluor 2021, BJeLR lethal -0.7 and PrP UTR inh -13.3.
Screening C=C1C2C[C@]3(C1O)C1CC4[C@@]5(C)CCC(O)[C@@]4(C1N(CC)C5)C3CC2O (some centres not stated) returned Mtb hypoxia inh 4.3, RN4220 kill 8.0, Sa ugtP lethal -7.0 and Mtb hypoxia inh growth -0.6.
COc1ccc(C2C(C(=O)N3CCC(C)CC3)c3ccccc3C(=O)N2C)cc1 (configuration not stated) was read as Mtb hypoxia inh 7.2, RN4220 kill 5.0, Bead autofluor 4264, BJeLR lethal -0.5, PrP UTR inh -43.2, Sa ugtP lethal -4.6 and Mtb hypoxia inh growth 6.4.
COc1ccccc1OCC#CCN1CCCC1 was read as Mtb hypoxia inh -3.8, RN4220 kill 3.2, Bead autofluor 6797, BJeLR lethal -0.2, PrP UTR inh -44.7, Sa ugtP lethal 2.9 and Mtb hypoxia inh growth 11.8.
`CCn1c(C)nc2cc(C(=O)NNC(=O)CCC3CCCCC3)ccc21` gave Mtb hypoxia inh 6.0, RN4220 kill -0.6, Bead autofluor 2703, BJeLR lethal 19.6, PrP UTR inh -5.0, Sa ugtP lethal 2.0 and Mtb hypoxia inh growth 5.6.
COc1ccc(-c2c(C(C)=O)c(C)n(C)c2C)cc1 was read as Mtb hypoxia inh 14.2, RN4220 kill 2.2, Bead autofluor 7201, BJeLR lethal -15.0, PrP UTR inh -23.5, Sa ugtP lethal 14.0 and Mtb hypoxia inh growth 12.9.
`Nc1ccccc1SCC(O)Cn1ccc2ccccc21` (configuration not stated) gave Mtb hypoxia inh 12.7, RN4220 kill 3.1, Bead autofluor 3791, BJeLR lethal -3.0, PrP UTR inh -22.6, Sa ugtP lethal -1.2 and Mtb hypoxia inh growth 3.7.
`CC1SCC(=O)N(CC(=O)NCCc2ccccc2)C1=O` (configuration not stated) gave Mtb hypoxia inh 1.4, RN4220 kill 0.8, Bead autofluor 4816, BJeLR lethal 2.0, PrP UTR inh -20.8, Sa ugtP lethal 14.8 and Mtb hypoxia inh growth 6.3.
For COC(=O)c1ccc2c(c1)NC1=C(C(=O)CC(C)(C)C1)C(c1ccncc1)N2 (configuration not stated) the results were Mtb hypoxia inh -1.2, RN4220 kill 0.3, Bead autofluor 11033, BJeLR lethal -1.6, PrP UTR inh -13.8, Sa ugtP lethal -0.4 and Mtb hypoxia inh growth 5.2.
Screening O=C(CNC(=O)c1cccc(Cl)c1)Nc1ccc(Br)cc1C(=O)c1ccccc1 returned Mtb hypoxia inh 10.6, RN4220 kill 0.3, Bead autofluor 2503, BJeLR lethal -9.4, PrP UTR inh -25.0, Sa ugtP lethal -14.3 and Mtb hypoxia inh growth 7.9.
COc1ccc(Cc2noc(CN3CCCC(C(=O)c4cccs4)C3)n2)cc1OC (configuration not stated) was read as Mtb hypoxia inh -12.0, RN4220 kill 1.2, Bead autofluor 2699, BJeLR lethal -2.4, PrP UTR inh -18.6, Sa ugtP lethal -0.9 and Mtb hypoxia inh growth 5.0.
